# High-throughput results deposited in PubChem by National Center for Advancing Translational Sciences (NCATS).
# FEN1 inhibitor – qHTS Assay for the Inhibitors of Human Flap endonuclease 1 (FEN1); P39748; Recombinant FEN1 flap cleavage, fluorescence, 15 min; Potency, µM (highest dose often 114 µM), for inactives: top-dose activity change, negative = inhibition, most hits filed as inhibitors; 390,000 tested, 0.35% active; AID 588795, 2011; note: nearly all actives have a fitted effect of over 65% in size
# Target sequence (P39748 whole entry, looked up): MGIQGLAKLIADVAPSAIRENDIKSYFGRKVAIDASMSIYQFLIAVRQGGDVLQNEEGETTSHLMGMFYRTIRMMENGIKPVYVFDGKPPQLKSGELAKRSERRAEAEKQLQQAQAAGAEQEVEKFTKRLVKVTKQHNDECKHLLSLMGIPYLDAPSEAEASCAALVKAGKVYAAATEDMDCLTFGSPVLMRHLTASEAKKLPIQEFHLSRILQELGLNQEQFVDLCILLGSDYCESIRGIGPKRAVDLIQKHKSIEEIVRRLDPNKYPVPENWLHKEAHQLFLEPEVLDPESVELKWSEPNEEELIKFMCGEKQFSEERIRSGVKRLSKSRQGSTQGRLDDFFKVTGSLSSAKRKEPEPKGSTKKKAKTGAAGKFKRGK
#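 In this screen, 50 nM flap DNA substrate was added to 10 nM FEN1 pretreated with compound for 15 min at room temperature; cleavage was followed with reads at 0 and 15 min, and Hill fitting gave concentration–response parameters.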
# N370S GC mod – qHTS Assay for Inhibitors and Activators of N370S glucocerebrosidase as a Potential Chaperone Treatment of Gaucher Disease; Lysosomal acid glucosylceramidase (Homo sapiens), P04062; N370S GC spleen homogenate, 4MU-glucoside fluorescence; Potency, µM (series often up to 59.4 µM), for the others: at the top dose activity change, negative = inhibition, actives largely listed as inhibitors; 330,000 tested, 0.092% active; AID 2101, 2009;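 note: 0% = full enzyme activity and -100% = no enzyme basal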
# * hit, by the source's call; ? = inconclusive; . = no result given; & = joins results of further samples. Calls come from the whole dose curve; as a rule, active = well fitted curve in the direction sought with a large enough effect; inconclusive = small, poorly fitted or top-dose-only effect, or another doubt; inactive = no such curve, though single readings can be large; an effect the other way counts as inactive or inconclusive. Unless noted, % is set by controls: 0 for no effect and ±100 for the full control effect; potency is the fitted concentration of half-maximal effect.
FEN1 inhibitor	N370S GC mod	mol
15%	-4%	CCOC(CNC(=O)C(=O)Nc1cc2c3c(c1)CC(=O)N3CCC2)OCC
0%	-2%	Cc1ccc(CNC(=O)CNC(=O)[C@@H]2Cc3ccccc3CN2C(=O)OC(C)(C)C)cc1
-3%	-1%	COc1ccc(C(c2nnnn2CC2CCCO2)N2CCN(c3ccccc3)CC2)cc1 (stereo not given)
-1%	?	COc1cccc(C(=O)Nc2ccc(C(F)(F)F)n(C)c2=O)c1
-16%	?	Cc1cc(=O)oc2cc(NC(=O)c3ccnn3C)ccc12
0%	-6%	Cc1cc(C)cc(NC(=O)c2ccc(S(=O)(=O)N(C)CC3CCCO3)cc2)c1 (stereo not given)
5%	0%	CCn1c(SC2CCOC2=O)nnc1-c1ccc(Cl)cc1 (stereo not given)
-13%	.	CN(C)c1ccc(CNc2nc(-c3ccco3)nn2C(=O)c2cccc([N+](=O)[O-])c2)cc1
-12%	4%	O=C(COC(=O)C1(c2ccccc2F)CCCC1)N1CCNC1=O
-16%	0%	CC(C)CC(=O)N1CCN(Cc2cccc(Cl)c2)CC1
-2%	.	CCCCN1Cc2ccccc2Oc2cc(Br)ccc2S1(=O)=O
16%	18%	CC1CCc2nc3ccc(S(=O)(=O)N4CCC(C(=O)NC5CCCC5)CC4)cc3c(C(=O)O)c2C1 (stereo not given)
-1%	-8%	CC(=O)/C(C#N)=C1\NC(=O)C(Cc2ccc(F)cc2)S1 (stereo not given)
36%&19%	7%	CCCN(CCC)CCCNC(=O)Cn1cnc2sc(C)c(S(=O)(=O)N3CCCCC3)c2c1=O
1%	4%	CCc1nc2oc3cc(OC)ccc3c(=O)c2c(=O)n1-c1ccccc1
-2%	2%	COc1ccccc1CNC(=O)C(=O)NCCC1CCCCN1S(=O)(=O)c1ccc(C)cc1 (stereo not given)
-10%	.	Cc1ccc(S(=O)(=O)CC(=O)Nc2sc3c(c2C#N)CCCCC3)cc1
-1%	1%	CCC(C)NCCOc1ccc(C)cc1[N+](=O)[O-] (stereo not given)
-5%	-6%	NC(=O)Cc1nc(-c2ccc([N+](=O)[O-])cc2)cs1
0%	0%	COc1ccc(NC(=O)NCCN2CCc3ccccc3C2)cc1
-11%	2%	COc1ccc(OC)c(NC(=O)C2CC(C)=C(C)CC2C(=O)O)c1 (stereo not given)
.	1%	CSCCC(N)C(=O)NC(CC(C)C)C(=O)NC(Cc1ccccc1)C(=O)O (stereo not given)
11%	-4%	COc1ccccc1Oc1ccc(N2CC(C(=O)OCC(=O)c3ccc(F)cc3)CC2=O)cc1 (stereo not given)
-23%	20%	Cc1ccc(NC(=O)COC(=O)CCC(=O)c2ccc(C(C)(C)C)cc2)c([N+](=O)[O-])c1
-6%	-3%	COc1cccc(OC)c1C(=O)Nc1ccc(N2CCN(S(C)(=O)=O)CC2)cc1
24%	.	Cc1nn(CC(=O)Nc2cc(F)ccc2F)c(=O)c2cccn12
-14%	?	Cc1ccc(NC(=O)Cc2nc(CSc3nnc(-c4ccc5c(c4)OCO5)o3)cs2)cc1
-1%	-3%	Cc1cc(C)cc(N(CCC#N)C(=O)CN2C(=O)NC3(CCCC3)C2=O)c1
7%	-2%	CCOc1ccc(NC(=O)COc2ccc(C(=O)N3CCC(C(N)=O)CC3)cc2OC)cc1
-9%	0%	COc1ccc([N+](=O)[O-])cc1N(CC(=O)O)S(C)(=O)=O
-1%	19%	O=C(COc1ccc(Cl)cc1Cl)NCC(=O)N/N=C/c1c[nH]c2ccccc12
2%	-6%	Cc1cccc(S(=O)(=O)N2CN(CC3CCCO3)c3nc4ccccc4nc32)c1 (stereo not given)
10%	6%	Cc1ccc(Cl)cc1N1CCN(C(=O)c2cc3c(=O)n(C)c4ccccc4c3n2C)CC1
-14%	?	COc1ccc(N(CC(=O)Nc2ccc(F)c(F)c2)S(=O)(=O)c2c(C)[nH]c(=O)[nH]c2=O)cc1
19%	2%	CCOC(=O)C1CCN(c2ncnc3c2cnn3C)CC1
-2%	1%	CN(C(=O)c1ccccc1)c1ccccc1C(=O)NCCc1ccccc1
-2%	.	O=C(COC(=O)c1cccc(Cl)c1)NCc1ccccc1
-20%	-9%	COc1ccc(C2/C(=C(\O)c3ccc4c(c3)OCCO4)C(=O)C(=O)N2Cc2ccco2)c(OC)c1 (stereo not given)
0%	-8%	CC12CCC(=O)N1C(C(=O)Nc1nc(-c3ccccc3)cs1)CS2 (stereo not given)
2%	5%	O=C(COC(=O)c1ccc(S(=O)(=O)N2CCCC2)cc1)Nc1ccc(N2CCOCC2)cc1
-13%	-14%	C=CCc1cc(/C=N/n2cnnc2)cc(OCC)c1O
-22%	13%	Cc1ccnc(SCC(=O)n2c3c(c4ccccc42)CC(C)CC3)n1 (stereo not given)
-21%	22%	COc1ccc2nc(Nc3ccccc3OC)sc2c1
2%	20%	Cc1cc(C)cc(NC(=O)CCCSc2nc3ccccc3[nH]2)c1
1%	8%	COc1cc2c(cc1OC)CC(=O)NC=C2
-16%	3%	O=C(N/N=C/c1ccccn1)c1cc(Br)ccc1O
.	5%	CC(C)(C)S(=O)(=O)c1ccc(S(=O)(=O)C(C)(C)C)s1
2%	-9%	c1ccc(COCC2CCNCC2)cc1
-6%	.	CCOC(=O)Cn1c(CN2CCN(c3ccc(OC)cc3)CC2)nc2c1c(=O)[nH]c(=O)n2C
-6%	-5%	O=C(c1ccc(F)cc1)N1CCN(c2cnn(-c3ccccc3)c(=O)c2Cl)CC1
-3%	11%	NC(=O)c1nn(-c2ccccc2)nc1N
-10%	-1%	CN1C(C)(C)CCCC1(C)C
14%	.	CCOC(=O)N1CCC(NC(=O)c2cnn(-c3ccc(C)cc3)c2C2CCN(C(=O)OC(C)(C)C)CC2)CC1
2%	-10%	CCOc1cccc(CN2CCCC(C(=O)c3cc(Cl)ccc3OC)C2)c1O (stereo not given)
-2%	-2%	CC(=O)Nc1ccc(OCC(=O)c2ccc(C)cc2C)cc1
4%	.	Cc1cccc(C)c1NC(=O)c1ccc(OCc2c(C)noc2C)cc1
-9%	0%	CC1CC1C(=O)NCCc1ccc(Cl)cc1 (stereo not given)
1%	-1%	COc1ccc(S(=O)(=O)NC(CC(=O)NCc2ccco2)C(C)C)cc1 (stereo not given)
-17%	8%	O=C(Cc1ccc(Cl)cc1)Nc1ccc(N2CCN(C(=O)c3ccco3)CC2)c(Cl)c1
5%	-2%	CC(=O)c1n[nH]nc1NC(=O)c1ccccc1

# Next entries follow.
FEN1 inhibitor	N370S GC mod	mol
-7%	3%	Cc1ccc(C(=O)CNc2ccc(F)cc2)cc1
-18%	-8%	COc1ccc(CN2CCC(Cc3ccccc3)CC2)cc1OC
79µM*	-4%	Cc1n[nH]c(C)c1Sc1ccccc1N=Cc1cc(Cl)cc([N+](=O)[O-])c1O
2%	1%	c1csc(-c2nn[nH]n2)c1
14%	0%	Cc1cccc(NC(=O)CSCC(=O)Nc2nnc(C3CC3)s2)c1
5%	10%	O=C(O)c1cnc(-c2ccccc2)nc1Sc1ccccc1Cl
-1%	10%	CCOC(=O)n1c(=O)n(Cc2c(Cl)cccc2Cl)c2ccccc21
-6%	-6%	CCC(=O)N1CCN=C1SCc1ccc(Cl)cc1
6%	6%	CC1=CC2=NC(=O)CC(C)(C(=O)N(CC(=O)NC(C)(C)C)Cc3ccccc3)N2C=C1 (stereo not given)
-1%	3%	Cc1cc(-c2ccc3ccccc3c2)n2ncnc2n1
16%	-10%	Cc1ccc(CN2CCC(CNC(=O)c3ccc(NC(=O)C4=CSCCO4)cc3)CC2)cc1
1%	.	COc1ccccc1NS(=O)(=O)c1ccc(C)c(NC(=O)C2CCCO2)c1 (stereo not given)
-5%	-3%	COc1ccccc1CN1C(=NC(=O)C2CCCCC2)SC2CS(=O)(=O)CC21 (stereo not given)
-17%	2%	CCN1CCCC1CNS(=O)(=O)c1ccc(F)c(Cl)c1 (stereo not given)
-15%	9%	c1ccc2c(-c3[nH]ncc3CNCCCn3ncc4ccccc43)cccc2c1
5%	-5%	COc1ccc(C(CNC(=O)c2ccc(C)o2)N2CCOCC2)cc1 (stereo not given)
2%	-4%	CCN(CCCNC(=O)CN(C)S(=O)(=O)c1ccc2c(c1)CCC(=O)N2)c1cccc(C)c1
-11%	-4%	CC1(C)Oc2ccc(C(=O)NC3CCCC3)cc2N(CC(=O)NC2CCCC2)C1=O
2%	?	COc1cccc(Oc2c(C)oc3c(CN4CCCCC4)c(O)ccc3c2=O)c1
-3%	2%	CC(C)C[C@H](NC(=O)OC(C)(C)C)C(=O)N/N=C/c1ccc2nccnc2c1
-21%	6%	O=C(COc1ccc2c(c1)CCC2)N1CCc2ccccc21
17%	1%	O=C(c1cc(C2CC2)on1)N1CCN(c2ccc(F)cc2)CC1
16%	.	CCCCn1nc(C(=O)Nc2cccc(C(=O)NC3CC3)c2)c2ccccc2c1=O
7%	-1%	CC(C)[C@H](NC(=O)c1ccccc1)C(=O)OCC(=O)N1CCc2ccccc2C1
-6%	-2%	CC(OC(=O)c1cnccn1)C(=O)c1ccccc1 (stereo not given)
6%	-1%	Cc1ccc([N+](=O)[O-])cc1-c1ccc(/C=N/NC(=O)CN2CCOCC2)o1
15%	1%	CC(C)=C1C2CCC1C1C(=O)N(c3ccc4c(c3)OCO4)C(=O)C21 (stereo not given)
5%	0%	Cc1ccc(CNC(=O)CCC2CCCN(Cc3ccc4cccc(F)c4n3)C2)o1 (stereo not given)
6%	4%	COc1ccc(CCNC(=O)c2ccc(OCC(=O)N3CCOCC3)c(OC)c2)cc1
17%	1%	COc1ccc(-c2nc(CS(=O)(=O)CC(=O)NCc3ccc4c(c3)OCO4)c(C)o2)cc1

# Some of these compounds in order of their number in FEN1 inhibitor, ascending:
FEN1 inhibitor	N370S GC mod	mol
5%	-5%	COc1ccc(C(CNC(=O)c2ccc(C)o2)N2CCOCC2)cc1 (stereo not given)
7%	-1%	CC(C)[C@H](NC(=O)c1ccccc1)C(=O)OCC(=O)N1CCc2ccccc2C1
15%	1%	CC(C)=C1C2CCC1C1C(=O)N(c3ccc4c(c3)OCO4)C(=O)C21 (stereo not given)

# Following part
FEN1 inhibitor	N370S GC mod	mol
.	-2%	O=C(Nc1cc(N2CCOCC2)ncn1)NC1(C(F)(F)F)Oc2ccc(Cl)cc2O1 (stereo not given)
-19%	0%	O=[N+]([O-])c1ccc(Oc2ccc(Oc3ccc(C(F)(F)F)cn3)cc2)nc1
14%	.	O=C(CSc1ncc2c(n1)-c1cc(Cl)ccc1N(Cc1ccccc1)S2(=O)=O)NCc1ccccc1
-7%	-19%	COc1ccc2nc(N(CCN(C)C)C(=O)/C=C/c3cccs3)sc2c1
1%	-3%	CC(NS(=O)(=O)c1ccc(Cl)cc1)C(=O)Nc1ccc2c(c1)OCCO2 (stereo not given)
4%	-18%	Cc1ccc(C)c(CN2C(=O)c3ccccc3S(=O)c3ccc(C(=O)N4CCN(c5ccccn5)CC4)cc32)c1 (stereo not given)
20%	0%	COCCC(=O)N1CCC(Oc2ccc(C(=O)NCCc3cnn(C)c3)cc2)CC1
-17%	.	Cc1ccc(S(=O)(=O)C(CNS(=O)(=O)c2ccc(F)c(C)c2)c2cccs2)cc1 (stereo not given)
8%	25%	CCC(=O)N(Cc1cc2cccc(C)c2[nH]c1=O)c1ccccc1OC
.	2%	CCC(=O)Nc1cccc(NC(C)=O)c1
8%	14%	CCN(CC)P(=O)(Nc1ccccc1Br)c1ccc(N(C)C)cc1NC(=O)c1ccco1 (stereo not given)
9%	-19%	CCc1ccc(-c2cc(C(=O)Nc3c(C)n(C)n(-c4ccccc4)c3=O)c3ccccc3n2)s1
-5%	1%	Cc1cc(=O)oc2cc(NC(=O)C3CC(=O)N(Cc4ccccc4)C3)ccc12 (stereo not given)
-9%&4%	-1%	Cn1c(=O)oc2cc(S(=O)(=O)N3CCC(C(=O)NCc4ccccc4Cl)CC3)ccc21
6%	-13%	COC(=O)[C@H](Cc1c[nH]c2ccccc12)NC(=O)CCCc1c[nH]c2ccccc12
-15%	15%	Clc1ccc2nc(N3CCCCC3)[nH]c2c1
.	-28%	CN(C)C(=O)c1ccc(-c2nc(NCc3ccccc3)c3ccccc3n2)cc1
0%	-5%	NC1=NN=C(N2N=C(c3ccco3)CC2(O)C(F)(F)F)n2ncnc2C1 (stereo not given)
-14%	-8%	CCOc1ccc(NC(=O)CN(C)C(=O)c2ccc(C3SCCS3)cc2)cc1OCC
1%	-10%	CCCNS(=O)(=O)c1cccc2cccnc12
0%	1%	O=C(c1cc(S(=O)(=O)N2CCOCC2)c(Cl)cc1Cl)N1CCCCC1CO (stereo not given)
7%	9%	Nc1ccc2nc3n(c(=O)c2c1)CCC3
-15%	?	C/C(=C\C(=O)c1ccccc1)NCc1ccc(F)cc1
5%	?	COc1ccccc1N(CC(=O)NC1CCCC1)C(=O)C1(C)CC(=O)N=C2C=CC(C)=CN21 (stereo not given)

# 4 entries from above, comma-delimited.
Compound,FEN1 inhibitor,N370S GC mod
CCN(CC)P(=O)(Nc1ccccc1Br)c1ccc(N(C)C)cc1NC(=O)c1ccco1 (stereo not given),8%,14%
CCc1ccc(-c2cc(C(=O)Nc3c(C)n(C)n(-c4ccccc4)c3=O)c3ccccc3n2)s1,9%,-19%
Cc1cc(=O)oc2cc(NC(=O)C3CC(=O)N(Cc4ccccc4)C3)ccc12 (stereo not given),-5%,1%
Cn1c(=O)oc2cc(S(=O)(=O)N3CCC(C(=O)NCc4ccccc4Cl)CC3)ccc21,-9%&4%,-1%

# Not all compounds are listed; most or all hits stand in other tables.
